Ecoli rRNA inh – reduced GFP signal of wild-type E. coli, primary screen, bacterial rRNA inhibitor project, GFP/RFP fluorescence, OD600, single point; E. coli WT GFP vs humanized-ribosome RFP mutants, 24 h; hits give low values; DMSO median 0, no signal -100; GFP signal change (wild-type ribosome), % (no concentration beside the values); 350,000 compounds, 1.6% hits; AID 720706, 2013;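 active means significant combined selectivity score with lowered wild-type GFP, culture density cut under 30%, mutant RFP and density less affected; inactive means any of these conditions unmet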; further: one replicate is shown; some compounds called inactive have numbers as strong as hits
AF4-AF9 inh – inhibitors of AF4 peptide binding to AF9, primary screen, biochemical, AlphaScreen, biotin-AF4 peptide, FLAG-AF9, single point; 350,000 compounds, 0.47% hits; inhibition, % at 10 µM; AID 651704, 2012; Protein AF-9 (Homo sapiens), P42568;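 active means every replicate reaching a set inhibition limit, whatever the replicate mean, cut at about 25% in these data; inconclusive means mean inhibition reaches that limit but some replicates miss it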;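 further: 0% = plate neutral control median and 100% = total signal loss; the record names both 10 and 1 µM as test concentration; the first replicate is given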
Target sequence (P42568 whole entry, looked up): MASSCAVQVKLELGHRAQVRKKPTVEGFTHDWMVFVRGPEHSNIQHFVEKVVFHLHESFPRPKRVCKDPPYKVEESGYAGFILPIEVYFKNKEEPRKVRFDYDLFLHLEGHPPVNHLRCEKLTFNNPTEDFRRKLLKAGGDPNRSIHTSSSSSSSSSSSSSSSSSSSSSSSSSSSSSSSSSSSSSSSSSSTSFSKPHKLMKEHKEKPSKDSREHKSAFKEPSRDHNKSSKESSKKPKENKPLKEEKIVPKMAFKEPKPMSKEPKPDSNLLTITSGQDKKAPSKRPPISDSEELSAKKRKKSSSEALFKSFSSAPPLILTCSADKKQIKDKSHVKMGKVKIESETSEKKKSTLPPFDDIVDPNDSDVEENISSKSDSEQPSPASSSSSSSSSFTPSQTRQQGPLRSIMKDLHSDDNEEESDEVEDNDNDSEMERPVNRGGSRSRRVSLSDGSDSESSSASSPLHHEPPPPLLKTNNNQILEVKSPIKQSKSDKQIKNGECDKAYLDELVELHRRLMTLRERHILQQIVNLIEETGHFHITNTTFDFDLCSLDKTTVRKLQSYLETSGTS
Vif A3G – inhibitors of Vif binding to APOBEC3G peptide, primary screen, biochemical, TR-FRET, GST-Vif 1-94, biotin-A3G peptide, dose response retest (AID 1117319). one-dose inhibition, %; IC50 in µM for titrated hits. 260,000 compounds, 0.57% hits. TR-FRET GST-Vif / biotin-A3G peptide binding; higher % means a stronger effect; test concentration not given here; strong numbers were not always called active. Virion infectivity factor (Human immunodeficiency virus type 1 group M subtype B (isolate …;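 active means above the screen mean plus three standard deviations and confirmed in dose response; inconclusive means results disagree or hit not tested in dose response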;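 further: Vif residues 1-94 fused to GST binding biotinylated APOBEC3G peptide 110-148; 0% = full assay without inhibitor and 100% = GST in place of GST-Vif; retest series ran down from 100 µM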
Beta cell apopt – inhibitors of cytokine-induced beta cell apoptosis, primary screen, luminescence | 300,000 compounds, 0.8% hits | AID 435005, 2010 | INS-1E cytokine-induced death, ATP luminescence, 48 h; percent of positive-control rescue, neutral wells zero | protection from apoptosis, % (concentration not given with the values);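 active means all replicates at 75% or more, or half of them and the mean; inconclusive means half reach 75% but not the mean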;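 further: 0% = cytokine-treated negative control wells and 100% = positive control rescue; higher means more ATP so stronger rescue from cytokine killing; wells of about 40 µL received 100 nL stock; the first replicate is given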
T cruzi inh – inhibitors of intracellular T. cruzi growth, primary screen, luminescence, NIH3T3 host cells. T. cruzi beta-gal in NIH3T3, 90 h. inhibition, % (concentration not given with the values). 300,000 compounds, 1.4% hits;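 active means mean inhibition across valid replicates above about 55%, limit read from the data; inconclusive means mean below that limit but half or more replicates reach it; inactive means mean below it, under half of replicates reach it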;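 further: signal also drops with host cell toxicity which is not excluded here; 0% = plate median of DMSO wells and 100% = zero luminescence signal; higher percent means less beta-gal luminescence so fewer parasites; stock transfer was 50 nL into about 50 µL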
RanGTP-Impb inh – inhibitors of RanGTP-importin-beta interaction, primary screen, biochemical, FRET, CFP-Ran, YFP-importin-beta, homogeneous; Ran GTPase (GTP-bound) - importin-beta complex; cell-free CFP-Ran/YFP-importin-beta FRET ratio; inhibition, % (concentration not given with the values); 300,000 compounds, 1.1% hits;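 active means most replicates above 15%; inconclusive means exactly half above 15%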;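 further: 0% = DMSO wells and 100% = Ran loaded with GDP instead of GTP; wells of about 40 µL received 100 nL stock; the first replicate is given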
A1 inh – caspase 3/7 activation in MEF A1-2A-BIM cells, primary screen, A1 inhibitor project, cell-based, luminescence, HTS; 330,000 compounds, 0.066% hits; caspase activation, % (test concentration not listed); Caspase-Glo 3/7 luminescence, 3 h; percent of clofoctol response, vehicle zero;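 active means over half of replicate activation scores above 10%, or exactly half above 10 with the replicate mean above 10; inconclusive means replicate mean below 10 yet half the replicates above 10; inactive means over half of replicates below 10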;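 further: wells of about 30 µL received 50 nL stock; many hits fall short of the cut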
Calb FLC – C. albicans growth inhibition with fluconazole, primary screen, CaCi-2 strain, Alamar Blue fluorescence; AID 1979, 2009; C. albicans CaCi-2 (fluconazole-resistant clinical isolate) + fluconazole, 48 h; growth inhibition, % (concentration not given with the values); 300,000 compounds, 0.57% hits;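 active means most replicates above 75%; inconclusive means exactly half above 75%; inactive means most below 75%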;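 further: all wells also contain fluconazole at 8 µg/ml as a sub-toxic cotreatment; 0% = median of DMSO wells and 100% = median of geldanamycin control wells; wells of about 8 µL received 7.5 nL stock; the first replicate is given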
Ecoli rRNA inh OD600 – also measured in Ecoli rRNA inh; calls as there; OD600 change, %; measured here: OD600 growth;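 optical density of the mix in the first replicate; 0 = DMSO median and -100 = no signal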
Ecoli rRNA inh RFP – further read-out of Ecoli rRNA inh, marked with its call; RFP signal change, %; measured here: RFP humanized mutant strains;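 first replicate; 0 = DMSO median and -100 = no signal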
* marks the source's active call; other numbers are inactive results; ? = inconclusive; · = no result given; & = joins results of further samples. This is a subset (hit frequency here may not be typical).

smiles	Ecoli rRNA inh	Ecoli rRNA inh OD600	T cruzi inh	Ecoli rRNA inh RFP	RanGTP-Impb inh	Vif A3G	Beta cell apopt	AF4-AF9 inh	A1 inh	Calb FLC
C/C(=N\NC(=O)c1cccs1)c1cccnc1	14	12	3	1.7	5.4	2%	·	-1.0	-1.6	-4
Clc1ccccc1Cc1noc(CN2CCN(c3cnccn3)CC2)n1	0	-16	3	0.3	-1.6	-1%	-4	2.1	1.7	0
COC(=O)c1c(C)[nH]c(C(=O)OCC(=O)NC(C)(C)C)c1C	·	·	6	·	4.1	5%	·	1.0	1.1	-10
COc1ccc(S(=O)(=O)N2CCC(C(=O)NCc3cccnc3)CC2)cc1C	1	0	2	-6.4	5.2	-7%	10	0.2	0.1	21
COc1cc(C(=O)Nc2cc(C(F)(F)F)ccc2N2CCOCC2)ccc1O	·	·	-7	·	?	·	-5	·	-0.6	-3
O=C(Nc1cccnc1)c1ccc(Cl)c(S(=O)(=O)N2CCCC2)c1	2	4	0	2.1	-1.1	·	-3	2.2	0.8	-7
Cn1c(CO)cnc1SCc1ccc(F)cc1	18	13	-11	1.7	-1.5	-1%	-5	-4.2	-0.3	-11
CCN1C(=O)[C@H]2[C@@H](c3ccc(C)cc3)N3C(=O)N(c4ccc(C)cc4)C(=O)[C@@]3(Cc3ccccc3)[C@H]2C1=O	15&4	24&6	-6	1.8&-3.1	1.4	·	-8	-0.8	-0.1	-14
CN(C)S(=O)(=O)c1ccc(NC(=O)c2cccnc2)cc1	·	·	-1	·	3.9	?	-10	·	0.3	?
COc1ccc2nc(NC(C)=O)sc2c1	·	·	-6	·	3.4	-6%	2	·	-5.9	-4
CCOc1cc(/C=C2/SC(=O)N(CC(=O)N3CCc4ccccc4C3)C2=O)ccc1OCC(=O)O	·	·	5	·	-0.9	11%	·	·	0.1	11
O/N=C/c1ccccc1OCc1ccc(Cl)cc1	·	·	12	·	-3.0	0%	-10	·	0.2	3
O=C(c1cc(N2CCOCC2)c(F)cc1[N+](=O)[O-])N1CCOCC1	5	8	-4	-1.0	-1.3	·	1	4.0	0.1	1
Cc1ccccc1N=C1Nc2ccccc2CS1	·	·	5	·	-0.1	-3%	8	·	2.5	0
CN(C(=O)CSc1nnc(-c2c[nH]c3ccccc23)o1)C1CCS(=O)(=O)C1 (stereo unspecified)	-6	-12	-5	1.3	-0.5	23%	0	0.2	-0.3	-1
CC(C)(C)c1ccc(C(=O)NCC(=O)NNC(=O)c2ccccc2O)cc1	-16	-18	5	-1.1	-3.0	6%	1	-9.0	-0.4	-8
CC1CCN(C(=O)c2nc[nH]c2C(=O)OCCNC(=O)OC(C)(C)C)CC1	2	2	·	6.5	·	·	-2	0.6	1.6	·
O=C(Cn1nc(-c2ccccc2F)ccc1=O)Nc1ccc(S(=O)(=O)N2CCCCCC2)cc1	·	·	-2	·	3.1	?	4	·	0.9	4
CS(=O)(=O)N1CCN(c2nc(-c3ccc(F)cc3)cs2)CC1	·	·	-14	·	-0.2	-8%	-3	·	0.3	2
CC(C)Oc1cccc(C(=O)O)c1	·	·	5	·	4.1	1%	-2	·	-0.3	-18
Cc1ccc(NC(=O)C2CCCN2C(=O)NC2CCCCC2)c(C)c1 (stereo unspecified)	·	·	-6	·	?	-5%	-4	·	0.5	-47
CC(C)CC(=O)Nc1ccc(C(=O)NN2C(=O)c3ccccc3C2=O)cc1	·	·	-3	·	-1.2	30%	-9	·	-0.4	28
CCCC/C=C1\CCc2c([nH]c3ccccc23)C1=O	7	7	7	-0.1	4.7	-5%	-3	-5.4	0.2	2
CC(C)CC(=O)Nc1ccccc1-c1nnn(CC(=O)N2CCOCC2)n1	16	9	-20	0.9	1.7	6%	-2	·	-0.6	-3
COC(=O)c1c(NC(=O)CSc2nnc(C)c(=O)[nH]2)sc(C)c1C	-20	-30	-2	-2.6	-2.9	-14%	·	-13	1.5	1
COCCn1c(-c2cccc(Br)c2)nc2c(c(=O)c3ccccc3n2C)c1=O	-11	-3	14	1.6	2.6	·	7	0.1	-0.2	-7
Cc1[nH]c2ccccc2c1C(=O)C(=O)N1CCCc2ccccc21	·	·	-6	·	-0.6	33%	-4	3.6	-0.7	-2
Brc1ccc(/C=C/C=N/Nc2nc3ccccc3s2)cc1	·	·	3	·	?	-3%	4	·	-0.3	99*
Cc1ccc(-c2nnc(Oc3ccc(NC(=O)c4ccccc4)cc3)c3ccccc23)cc1	·	·	42	·	?	·	0	·	1.2	3
NC(=O)CN1CCN(C(=O)Nc2ccccc2)CC1	9	8	-4	-1.6	2.6	3%	-2	1.4	0.5	6
NC(=O)c1c(NC(NC(=O)c2ccco2)(C(F)(F)F)C(F)(F)F)sc2c1CCCC2	·	·	-7	·	0.9	25%	-2	·	0.1	17
Cc1noc(C)c1COC(=O)c1ccccc1Sc1ccccc1C#N	·	·	15	·	-2.3	1%	2	·	0.9	1
COc1ccc(Nc2nc(N)nc(CSC(=S)N3CCCCC3)n2)cc1	-32	-37	-15	-7.3	2.4	·	1	8.8	0.5	15
O=C1c2ccccc2S(=O)(=O)c2cc(N3CCN(c4ccccc4)CC3)ccc21	-11	-8	2	-2.0	-17	·	-4	-6.6	1.2	-15
CCOC(=O)/C=C1\CN(Cc2cc(OC)c(OC)c(OC)c2)S(=O)(=O)c2ccccc21	-18	-2	-13	-2.0	3.3	·	2	-5.3	-0.3	18
Cc1ccc(NC(=O)Cn2c(O)c(N=NC(=O)c3ccncc3)c3ccccc32)cc1	·	·	12	·	-1.2	-8%	-3	·	-0.3	0
Cc1c(O)c(=O)n(-c2ccccc2)n1C	-16*	3.8*	·	5.1*	·	·	-10	-2.5	0.8	·
Cc1ccccc1-n1c(=O)cc(N2CCc3ccccc3C2)[nH]c1=O	3	3	-3	-4.2	53*	0%	2	4.9	-0.4	0
CC(C)Cn1c(N)c(C(=O)COC(=O)c2ccccc2C(=O)c2ccccc2)c(=O)n(C)c1=O	3	-5	·	-3.2	·	·	5	-0.8	-1.1	·
COc1ccc(NC(=O)NC2CC3CCCC(C2)N3Cc2ccccc2)cc1 (stereo unspecified)	·	·	9	·	-3.0	1%	-6	·	-0.6	0
CCOC(=O)c1nn(-c2ccc(C)cc2)c(=O)cc1OCC(=O)N1CCN(c2ccccc2)CC1	-3	-11	-2	-0.9	2.3	-6%	3	3.4	0.8	-1
CC(=O)c1ccc2c(c1)N(C)c1ccccc1S2	·	·	11	·	-5.2	?	0	·	0.3	1
CC1CCN(C(=O)C2CCCN(S(=O)(=O)c3cccc4nsnc34)C2)CC1 (stereo unspecified)	-4	-8	-12	2.8	1.7	0%	-4	2.8	-0.3	1
COc1cc2c(C(=O)O)c(C)n(-c3ccccc3)c2c2ccccc12	-2	-4	-4	9.0	3.1	·	-4	-3.6	1.0	15
CSc1ccc(/C=C/C(=O)Nc2ccccc2)cc1	1	3	·	-6.6	·	0%	1	-2.7	-10	119*
O=C1CN(C(=S)Nc2ccccc2Cl)CCN1	2	2	-14	-0.5	0.9	3%	-1	-3.2	0.5	18
O=C(C1CCCN1S(=O)(=O)c1cccc2nsnc12)N1CCCCC1 (stereo unspecified)	8	-1	-10	-4.7	4.3	0%	0	-3.6	-1.1	16
COc1cc(NC(=O)CCc2c(C)[nH]c(=O)c(C#N)c2C)cc(OC)c1	6	12	1	0.5	-1.5	-11%	1	?	0.0	4
CCCCOc1ccc(/C=C2/Sc3ccccc3C2=O)cc1	8	4	-13	16	14	28%	-1	·	2.0	8
Cc1ccc(-c2ccc(CO)o2)cc1N	12	11	-7	0.9	-0.4	1%	-2	4.0	0.2	0
CN(Cc1ccccc1)C(=O)c1[nH]cnc1C(=O)Nc1ccccc1	-46	-67	·	-12	·	·	-8	1.2	0.9	·
O=C(C1CC1)N1CCN(Cc2ccccc2)CC1	1	-4	-1	-2.3	2.2	·	-10	-3.8	-0.6	0
Cc1ccc(-n2nc3c(=O)n(CCCC(=O)NCc4ccccc4C)nc(C)c3c2C)cc1	7	6	-6	-0.7	2.2	4%	3	-6.8	0.3	-21
CN1/C(=C\C(=O)CSc2nncn2C)C(C)(C)c2ccccc21	·	·	-3	·	1.7	?	45	·	0.1	3
CCN1C(=O)/C(=C2\C=Cc3ccccc3N2CC)SC1=S	·	·	42	·	-18	-6%	36	·	-1.8	1
Cc1nn(C)c(C(=O)Nc2ccn(Cc3ccccc3F)n2)c1[N+](=O)[O-]	·	·	2	·	0.5	6%	-5	·	0.0	-8
Cc1cccc(C)c1OCC(O)CN1CCC(CN2C(=O)c3cccc4cccc(c34)C2=O)CC1 (stereo unspecified)	·	·	44	·	1.9	5%	26	·	0.0	22
CCOc1ccc(-n2c(SCC(=O)Nc3ccc(OC)cc3)nc3sc4c(c3c2=O)CCN(C)C4)cc1	-11	17	34	0.1	3.3	·	-2	3.4	0.2	64
O=S(=O)(NCC(c1ccco1)N1CCOCC1)c1ccc(Cl)cc1 (stereo unspecified)	6	8	-24	7.9	0.3	-5%	0	5.2	0.2	8
